Source: PubChem BioAssay (National Center for Advancing Translational Sciences (NCATS))
MARV entry inh = inhibitors of Marburg virus binding or cell entry; Marburg virus pseudotyped entry inhibition, cell reporter; control for the full effect not named in the record; about a third of the inactives were read at about 46 µM; Potency, µM (doses to about 37.8 µM), without a hit: top-dose activity change, negative = inhibition, hits mostly inhibitors; 300,000 compounds, 1.8% hits; AID 540276; active = well fitted inhibition curve with a large enough effect; inconclusive = small, poorly fitted or top-dose-only effect, or effect the other way; inactive = flat fitted curve, though single readings scatter; tested in HEK293 cells; about a fifth of its hits are not listed in these tables; further: on the % scale 0 is the no-effect control and ±100 the full control effect; luciferase read-out
RE007 growth inh = less growth of the S. pombe RE007 Vpr strain. S. pombe RE007 Vpr strain, BacTiter-Glo ATP luminescence, 24 h; control for the full effect not named in the record. Potency, µM (top dose mostly 92.2 µM), for inactives: top-dose activity change, negative = less growth. 360,000 compounds, 0.21% hits. AID 651644; active = well fitted falling curve with a large enough effect; inconclusive = small, poorly fitted or top-dose-only effect; inactive = no such curve, though single readings can be large or run the other way;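 further: on the % scale 0 is the no-effect control and ±100 the full control effect; nearly all actives have a fitted effect of over 50% in size; the assay follows cell death caused by Vpr and the record does not say whether a fall means rescue or toxicity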
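Fission yeast RE007 carrying one integrated HIV-1 vpr copy, seeded at OD 0.01 in PMG+AL medium with 23 nL pinned compound. Grown 24 h at 30 degrees; viability read by BacTiter-Glo luminescence after 5 min.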
NS1 inh = inhibitors of influenza NS1 protein function; Potency, µM (doses to about 46.1 µM), for the others: at the highest dose activity, positive = more growth; 270,000 compounds, 0.4% hits; AID 2326; S. cerevisiae slowed by influenza A NS1, growth recovery by OD600; active means well fitted rising curve with a large enough effect; inconclusive means small, poorly fitted or top-dose-only effect; inactive means no such curve, though single readings can be large or run the other way; further: nearly all actives have a fitted effect of over 50% in size
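A cell-based growth assay was used: compounds that relieve NS1-induced slow growth of budding yeast raise OD600. Assay medium was yeast nitrogen base with ammonium sulphate and -URA supplement, pH 6.0, with 2% galactose.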
2A StopGo = FMDV 2A StopGo reporter, luciferase signal; human cells with a luciferase reporter of 2A StopGo recoding; control for the full effect not named in the record; Potency, µM (titrated, usually from 57.9 µM), for the others: top-dose signal change, negative = less light; 410,000 compounds, 1.2% hits; active = well fitted falling curve with a large enough effect; inconclusive = small, poorly fitted or top-dose-only effect; inactive = no such curve, though single readings can be large or run the other way; tested in HEK293T cells; further: on the % scale 0 is the no-effect control and ±100 the full control effect; nearly all actives have a fitted effect of over 45% in size; luciferase light after 4 h
SARS PLpro yeast = SARS-CoV PLP inhibition in yeast | S. cerevisiae expressing SARS-CoV PLpro, growth rescue; control for the full effect not named in the record | Potency, µM (highest dose often 32.9 µM), for the others: at the highest dose activity, positive = growth rescue | 330,000 compounds, 0.19% hits | AID 485353; active means well fitted rising curve with a large enough effect; inconclusive means small, poorly fitted or top-dose-only effect; inactive means no such curve, though single readings can be large or run the other way; further: 0% is about no effect; nearly all actives have a fitted effect of over 55% in size; growth read by luminescence after 48 h
Lassa entry inh = inhibitors of Lassa virus binding or cell entry; AID 540256; 300,000 compounds, 1.2% hits; Lassa virus pseudotype entry inhibition, cell reporter; control for the full effect not named in the record; Potency, µM (series often up to 37.9 µM), for inactives: at the highest dose activity change, negative = inhibition, most hits filed as inhibitors; active means well fitted inhibition curve with a large enough effect; inconclusive means small, poorly fitted or top-dose-only effect, or effect the other way; inactive means flat fitted curve, though single readings scatter; tested in HEK293 cells; further: on the % scale 0 is the no-effect control and ±100 the full control effect; nearly all actives have a fitted effect of over 50% in size; luciferase read-out
Cruzain Triton = inhibitors of Trypanosoma cruzi cruzain with detergent | purified cruzain, Z-FR-AMC fluorescence, 0.01% Triton | 200,000 compounds, 0.43% hits | Potency, µM, for inactives: max response, negative = inhibition, actives largely listed as inhibitors | P25779;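 further: plate controls were neutral wells for no effect and buffer without enzyme for full effect; nearly all actives have a fitted effect of over 40% in size; top concentration of the series not given in the record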
Target sequence (P25779 123-467 limits assumed): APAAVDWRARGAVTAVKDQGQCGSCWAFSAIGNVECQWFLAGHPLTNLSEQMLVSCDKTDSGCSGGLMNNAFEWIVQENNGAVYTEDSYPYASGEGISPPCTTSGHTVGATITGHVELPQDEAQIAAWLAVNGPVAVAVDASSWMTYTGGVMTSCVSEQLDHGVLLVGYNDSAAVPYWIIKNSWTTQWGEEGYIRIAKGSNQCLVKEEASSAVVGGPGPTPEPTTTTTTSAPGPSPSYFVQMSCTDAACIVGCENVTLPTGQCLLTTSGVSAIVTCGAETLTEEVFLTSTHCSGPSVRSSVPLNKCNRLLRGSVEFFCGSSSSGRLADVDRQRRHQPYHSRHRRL
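In this qHTS format, compounds are incubated with 1.5 nM cruzain for 15 min at room temperature before 2 uM Z-FR-AMC is added. Release of AMC is followed at 360/450 nm, and progress is taken as the 60 s fluorescence difference.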
Cruzain noTriton = blocks cruzain activity in detergent-free assay. P25779. purified cruzain, Z-FR-AMC fluorescence, no detergent. Potency, µM, inactives show max response, negative = inhibition, most hits filed as inhibitors. 200,000 compounds, 2.3% hits. AID 1476;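 further: plate controls were enzyme without inhibitor for no effect and buffer without enzyme for full effect; nearly all actives have a fitted effect of over 40% in size; top concentration of the series not given in the record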
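Purified cruzain at 1.5 nM, pre-incubated 15 min with compound at room temperature in 100 mM sodium acetate pH 5.5, 5 mM DTT, 0.00005% Triton X-100. Reaction started with 2 uM Z-FR-AMC; AMC fluorescence increase over 60 s gives rate.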
Active calls of the source: *; ? = inconclusive; . = no result given; [ ] = dose if it differs, or a comment. Unless noted, the call rests on the fitted dose curve; in most records, active means well fitted curve in the direction sought with a large enough effect; inconclusive means small, poorly fitted or top-dose-only effect, or another doubt; inactive means no such curve, though single readings can be large; an effect the other way counts as inactive or inconclusive. Potency means the concentration at half of the fitted maximal effect.

Structure | MARV entry inh | RE007 growth inh | NS1 inh | 2A StopGo | SARS PLpro yeast | Lassa entry inh | Cruzain Triton | Cruzain noTriton
CCC(=O)Nc1cccc(SC)c1 | ? | 7% | -6% | 4% | 0% | 3% | -1.5% | 0%
COc1ccc(Nc2ccc(Cl)nn2)cc1 | 6% | 10% | -2% | 55%[activator] | 5% | 22% | . | .
CN1CCN(c2nc3c(S(=O)(=O)c4ccc(Br)cc4)nnn3c3ccsc23)CC1 | . | . | . | 24% | . | -8%[46.1 µM] | 0.8% | 3%
CC(C)Cc1oc(C(=O)O)cc1CN | 1% | 8% | 25% | . | -6% | 7% | 3.1% | -4%
COc1cccc(NC(=O)CN2C(=O)CSc3ccc(S(=O)(=O)N4CCCCC4)cc32)c1 | . | 23% | 16% | -10% | -2% | . | . | .
CCCC1=NN(C(=O)Cc2ccc([N+](=O)[O-])cc2)C(O)(C(F)(F)F)C1 (stereo not given) | -25%[46.1 µM] | 4% | . | 0% | 5% | -8% | . | .
COc1ccc(-c2noc(CCC(=O)Nc3cccnc3)n2)cc1OC | 0% | -9% | 2% | ? | -5% | 13% | -0.6% | 7%
CCOc1ccc(N(CC(=O)NCc2ccccc2)S(=O)(=O)c2c(C)noc2C)cc1 | -4% | -5% | -1% | -6% | -6% | . | 1.0% | 11%
O=C(CSc1nnc(NC(=O)c2ccccc2)s1)NCc1ccco1 | ? | -10% | 12% | 16% | 0% | ? | . | .
CCCCOc1ccc(CNC(=O)Cc2ccc(NC(=O)N3CCSc4ncccc43)cc2)cc1 | . | . | . | ? | . | ? | -2.8% | 4%
COCCn1cnc2c1c(=O)n(CC(=O)NCC(F)(F)F)c(=O)n2Cc1ccccc1 | 27%[46.1 µM] | 12% | -1% | -20% | 0% | 17%[46.1 µM] | . | .
COc1ccc(C(=O)Nn2c(C)ccc2C)cc1OC | -1% | -4% | 16%[9.22 µM] | 3% | -5% | 10% | 0.5% | -17%
CC(=O)Oc1ccc(N2C(=O)C3C(C2=O)C(C(=O)c2ccc(Cl)cc2)N2CCCC32)cc1 (stereo not given) | 13%[46.1 µM] | -18% | -10% | ? | 0% | ? | . | .
Cc1ccc(C(C)NC(=O)c2c(C)noc2C)cc1C (stereo not given) | -1% | 0% | -5% | 5% | -2% | -1% | 0.8% | 7%
O=C(Cc1cccs1)Nc1cccc(-c2nnc(-c3ccco3)o2)c1 | -1%[46.1 µM] | -2% | . | 0% | -6% | -10%[46.1 µM] | . | .
CCn1c(Cc2ccccc2)nnc1SCC(=O)c1cccc([N+](=O)[O-])c1 | 0% | -2% | -8% | . | 2% | 0% | 1.1% | -9%
CC(C)C(=O)Nc1cc2c3c(c1)CCN3C(=O)CC2 | . | -2% | 8% | -2% | -8% | . | . | .
COC(=O)C(C)(C(=O)OC)c1ccccc1[N+](=O)[O-] | 13%[46.1 µM] | -4% | 5% | 0% | 14% | 23% | 2.4% | 4%
Cc1c(Cl)c([N+](=O)[O-])nn1CCCC(=O)Nc1sc2c(c1C(N)=O)CCC(C)C2 (stereo not given) | 6% | -25% | -6% | -24% | 14% | 0% | -2.4% | ?
CCOc1ccc(CN2C(=O)c3ccccc3C2C(=O)NCc2cccnc2)cc1 (stereo not given) | 1% | -3% | -7% | -1% | -1% | ? | 3.8% | 5%
COc1ccc(-n2cc(C(=O)O)c(=O)cc2C)cc1 | 22%[46.1 µM] | 15% | . | 2% | -2% | -2%[46.1 µM] | . | .
C/C(=N/O)c1ccccn1 | . | 8% | 1% | -11% | -5% | . | . | .
CC(C)c1ccc(CNC(=O)C2CCCN2S(=O)(=O)c2ccccc2)cc1 (stereo not given) | . | 3% | -1% | -16% | -1% | . | . | .
O=C1Nc2ccccc2C(O)(C(=O)NCc2ccco2)N1c1ccc(Cl)c(Cl)c1 (stereo not given) | -27% | 5% | -4% | 18% | 4% | 13% | -2.4% | -1%
Cc1ccc(C(=O)N2CCc3cc(CNS(=O)(=O)c4ccc(Cl)s4)ccc32)cc1 | . | . | . | -14% | . | -25%[46.1 µM] | -2.1% | ?
N#CN=C(c1ccccc1)c1ccccc1 | -16%[46.1 µM] | 8% | -36% | -6% | 9% | 10%[46.1 µM] | . | .
Cc1ccc(C)c(NC(=O)CN(C)S(=O)(=O)c2ccc3c(c2)CCC(=O)N3)c1 | 0%[46.1 µM] | . | . | -9% | . | 0%[46.1 µM] | 1.9% | 6%
Cc1ccc(-n2c(SCc3ccccc3)nc3c([nH]c4ccccc43)c2=O)cc1 | . | . | . | -17% | . | -6%[46.1 µM] | -2.5% | 10%
COc1ccc2c(c1)CCCC21NC(=O)NC1=O (stereo not given) | 4% | -21% | -2% | -6% | 2% | 1% | 3.4% | -4%
CC(C)NC(=O)c1sc2nc(-c3cccs3)cc(-c3cccs3)c2c1N | 4% | 12% | 9% | 0% | 1% | 7% | -7.5% | -28%
CCCc1c(C)c2ccccc2[nH]c1=O | ? | 16% | -76% | 12% | -4% | 1% | -0.3% | 13%
Cc1ccc(C)c(CN2C(=O)c3ccccc3S(=O)c3ccc(C(=O)N4CCOCC4)cc32)c1 (stereo not given) | ? | . | . | -16% | . | -22%[46.1 µM] | 0.1% | ?
CCC(C)NC(=O)CNC(=O)c1nn(-c2ccc(OC)c(Cl)c2)c(=O)c2ccccc12 (stereo not given) | . | 4% | 3% | ? | -2% | . | . | .
Nn1c(C2CCC2)nc2cc(Cl)ccc2c1=O | . | -1% | -3% | ? | -10% | . | . | .
Cc1c(-c2ccccc2)nc(-c2ccccc2)[nH]c1=O | ? | 2% | 1% | 4% | 5% | 0% | -0.5% | -7%
Cc1nn2c(C)c(C(=O)NCCc3ccccc3)cnc2c1-c1ccccc1 | . | . | . | 5% | . | 13%[46.1 µM] | -6.3% | 18%
Cc1cc(C(=O)OCC(=O)N2c3ccccc3CC2C)c(C)o1 (stereo not given) | 3% | -1% | -1% | 7% | -1% | 14% | -0.5% | -1%
COCN(C#N)c1nc(N(C)C)nc(N(C)C)n1 | -15%[46.1 µM] | 6% | 1% | 2% | 0% | . | . | .
CC(C)(C)C(=O)COC(=O)c1ccc2c(c1)C(=O)N(Cc1ccco1)C2=O | 0% | 2% | -1% | -4% | -1% | -12% | . | .
COC(=O)CNc1nc(Cl)nc(Nc2ccc(C)cc2)n1 | ? | 11% | . | 14% | 0% | 19%[46.1 µM] | . | .
COc1cccc(-c2nc(S(=O)(=O)c3ccccc3)c(N3CCC(C)CC3)o2)c1 | -27%[46.1 µM] | . | . | -7% | . | ? | -16% | -3%
CN(C)CCCNC(=O)C[C@H]1C[C@H](C(=O)N2CCCCC2)[C@@]2(C)c3[nH]c4ccc(Cl)cc4c3CCN2C1=O | -2% | -8% | . | -13% | 14% | . | . | .
COC(=O)C1=C(CS(=O)(=O)c2ccc(Cl)cc2)NC(=O)NC1c1ccc(O)cc1 (stereo not given) | . | 2% | -11% | -7% | 0% | . | . | .
Cc1cccc(OCCOC(=O)CN2C(=O)NC3(CCCC3)C2=O)c1 | -3% | -6% | . | -24% | -5% | -22% | . | .
COc1ccc(-n2cc(CN(C)C3CCOCC3)c(-c3cccc(F)c3)n2)cc1 | ? | -16% | -2% | -7% | 3% | ? | . | .
CCOC(=O)c1[nH]cnc1C(=O)Nc1ccccc1C | -2%[14.2 µM] | 0% | . | -19% | -6% | 14% | . | .
COc1cc(NC(=O)C2CC(=O)N(CCc3ccc(F)cc3)C2)cc(OC)c1OC (stereo not given) | 2%[46.1 µM] | 4% | -15% | -15% | -2% | -19% | . | .
COc1ccccc1NC(=O)c1c(C)cc(C)nc1SCC(=O)Nc1cccc(C)c1 | -21%[46.1 µM] | . | . | -9% | . | ? | -4.8% | -4%
Cc1cc(C(=O)COC(=O)C2=NNC(=O)CC2)c(C)n1-c1ccc(OC(F)F)cc1 | -9% | -5% | -7% | -24% | -3% | 2% | -2.7% | 0%
O=C(c1cc2cc(Cl)ccc2oc1=O)N1CCCC1 | 29% | 5% | 4% | -19% | -28% | 1% | -2.5% | -2%
FC(F)(F)c1ccc(C2[C@H]3CN(Cc4ccc(-c5ccccc5)cc4)[C@H](c4ccccc4)C34CC2(c2cccnc2)C4)cc1 (stereo not given in full) | . | -17% | 23% | -8% | 0% | . | 7.0% | -6%
O=C(Cc1ccsc1)Nc1ccc(Cl)cc1Cl | 16%[46.1 µM] | -5% | -11% | 6% | ? | 14%[46.1 µM] | . | .
COCCCn1c(SCc2cccc(Cl)c2)nc2c(sc3ccccc32)c1=O | . | . | . | ? | . | 3%[46.1 µM] | 4.0% | -6%
NC(=O)c1c(NC(=O)CSc2nnc(Cc3ccccc3)n2Cc2ccco2)sc2c1CCC2 | -27% | 13% | -30% | 55%[activator] | 4% | 18%[14.3 µM] | -15% | -14%
CCn1nc(C)c([N+](=O)[O-])c1C(=O)NNC(=O)c1ccc(Cl)cc1 | 9% | -9% | 2% | -10% | 1% | 9% | . | .
COc1cc2[nH]c(=O)n(CCCC(=O)N3CC=C(c4ccccc4)CC3)c(=O)c2cc1OC | ? | 0% | -16% | ? | -1% | ? | -6.9% | ?
CCn1c(SCC(=O)Nc2ccc3c(c2)n(C)c(=O)n3C)nnc1-c1ccncc1 | 22% | 3% | -48% | -7% | -5% | ? | . | .

Some entries already given, showing only MARV entry inh.
Molecule | MARV entry inh
CCOC(=O)c1[nH]cnc1C(=O)Nc1ccccc1C | -2%[14.2 µM]
COc1cc(NC(=O)C2CC(=O)N(CCc3ccc(F)cc3)C2)cc(OC)c1OC (stereo not given) | 2%[46.1 µM]

Rows were taken by chance. About 4.8% of those tested had a hit in this group.
